Screening data: PubChem, National Center for Advancing Translational Sciences (NCATS)
NS1 inh – qHTS Assay for Inhibitors of Influenza NS1 Protein Function; Potency, µM (series often up to 46.1 µM), for the others: at the top dose activity, positive = more growth; S. cerevisiae slowed by influenza A NS1, growth recovery by OD600; 0.4% of 270,000 active; AID 2326, 2010; note: actives are rising curves; nearly all actives have a fitted effect of over 50% in size
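OD600 was taken as the measure of yeast growth restored by compound in an NS1-expressing S. cerevisiae strain. Cells had been washed out of glucose medium and diluted 1:100 into galactose -URA medium, pH 6.0.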
Marburg entry inh – qHTS for inhibitors of binding or entry into cells for Marburg Virus; Marburg virus pseudotyped entry inhibition, cell reporter; control for the full effect not named in the record; about a third of the inactives were read at about 46 µM; Potency, µM (series often up to 37.8 µM), for inactives: at the top dose activity change, negative = inhibition, usual class: inhibitors; 1.8% of 300,000 active; AID 540276, 2011; active = well fitted inhibition curve with a large enough effect; inconclusive = small, poorly fitted or top-dose-only effect, or effect the other way; inactive = flat fitted curve, though single readings scatter; tested in HEK293 cells; about a fifth of its hits are not listed in these tables; note: % is set by controls: 0 for no effect and ±100 for the full control effect; luciferase read-out
RE007 growth inh – qHTS Assay for Inhibitors of the HIV-1 protein Vpr; Potency, µM (series often up to 92.2 µM), without a hit: at the highest dose activity change, negative = less growth; 0.21% of 360,000 active; AID 651644, 2012; S. pombe RE007 Vpr strain, BacTiter-Glo ATP luminescence, 24 h; control for the full effect not named in the record; active = well fitted falling curve with a large enough effect; inconclusive = small, poorly fitted or top-dose-only effect; inactive = no such curve, though single readings can be large or run the other way;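 note: % is set by controls: 0 for no effect and ±100 for the full control effect; nearly all actives have a fitted effect of over 50% in size; the assay follows cell death caused by Vpr and the record does not say whether a fall means rescue or toxicity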
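Fission yeast RE007 carrying one integrated HIV-1 vpr copy, seeded at OD 0.01 in PMG+AL medium with 23 nL pinned compound. Grown 24 h at 30 degrees; viability read by BacTiter-Glo luminescence after 5 min.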
Lassa entry inh – qHTS for Inhibitors of binding or entry into cells for Lassa Virus; 1.2% of 300,000 active; Lassa virus pseudotype entry inhibition, cell reporter; control for the full effect not named in the record; Potency, µM (highest dose often 37.9 µM), for the others: at the highest dose activity change, negative = inhibition, actives largely listed as inhibitors; AID 540256, 2011; active means well fitted inhibition curve with a large enough effect; inconclusive means small, poorly fitted or top-dose-only effect, or effect the other way; inactive means flat fitted curve, though single readings scatter; tested in HEK293 cells; note: % is set by controls: 0 for no effect and ±100 for the full control effect; nearly all actives have a fitted effect of over 50% in size; luciferase read-out
Cruzain Triton – qHTS Assay for Promiscuous and Specific Inhibitors of Cruzain (with detergent); Cruzipain (Trypanosoma cruzi), P25779; purified cruzain, Z-FR-AMC fluorescence, 0.01% Triton; Potency, µM, without a hit: max response, negative = inhibition, most hits filed as inhibitors; 0.43% of 200,000 active; AID 1478, 2009; active = well fitted curve in the direction sought with a large enough effect; inconclusive = small, poorly fitted or top-dose-only effect, or another doubt; inactive = no such curve, though single readings can be large; an effect the other way counts as inactive or inconclusive;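 note: plate controls were neutral wells for no effect and buffer without enzyme for full effect; nearly all actives have a fitted effect of over 40% in size; top concentration of the series not given in the record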
Target sequence (P25779 123-467 limits assumed): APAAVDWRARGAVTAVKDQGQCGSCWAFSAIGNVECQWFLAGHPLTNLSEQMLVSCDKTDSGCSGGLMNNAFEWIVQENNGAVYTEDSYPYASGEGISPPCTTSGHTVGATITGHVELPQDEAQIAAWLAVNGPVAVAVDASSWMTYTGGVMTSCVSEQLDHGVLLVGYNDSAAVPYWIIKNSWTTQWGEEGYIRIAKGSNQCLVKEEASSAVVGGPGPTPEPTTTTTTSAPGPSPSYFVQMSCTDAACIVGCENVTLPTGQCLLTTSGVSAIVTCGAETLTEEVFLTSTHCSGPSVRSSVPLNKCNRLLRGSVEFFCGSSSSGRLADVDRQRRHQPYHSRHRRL
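Z-FR-AMC hydrolysis (2 uM substrate) by cruzain (1.5 nM) monitored kinetically at ex 360/em 450 nm after 15 min room-temperature compound exposure; 0.01% Triton X-100, pH 5.5, 5 mM DTT.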
2A StopGo – High Throughput Screening for Foot and Mouth Disease Virus Antivirals. 1.2% of 410,000 active. human cells with a luciferase reporter of 2A StopGo recoding; control for the full effect not named in the record. Potency, µM (series often up to 57.9 µM), inactives show top-dose signal change, negative = less light; active = well fitted falling curve with a large enough effect; inconclusive = small, poorly fitted or top-dose-only effect; inactive = no such curve, though single readings can be large or run the other way; tested in HEK293T cells; note: % is set by controls: 0 for no effect and ±100 for the full control effect; nearly all actives have a fitted effect of over 45% in size; luciferase light after 4 h
Cruzain noTriton – qHTS Assay for Promiscuous and Specific Inhibitors of Cruzain (without detergent); purified cruzain, Z-FR-AMC fluorescence, no detergent; AID 1476, 2009; Potency, µM, for inactives: max response, negative = inhibition, most hits filed as inhibitors; 2.3% of 200,000 active; active = well fitted curve in the direction sought with a large enough effect; inconclusive = small, poorly fitted or top-dose-only effect, or another doubt; inactive = no such curve, though single readings can be large; an effect the other way counts as inactive or inconclusive;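 note: plate controls were enzyme without inhibitor for no effect and buffer without enzyme for full effect; nearly all actives have a fitted effect of over 40% in size; top concentration of the series not given in the record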
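Purified cruzain at 1.5 nM, pre-incubated 15 min with compound at room temperature in 100 mM sodium acetate pH 5.5, 5 mM DTT, 0.00005% Triton X-100. Reaction started with 2 uM Z-FR-AMC; AMC fluorescence increase over 60 s gives rate.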
SARS PLpro yeast – qHTS of Yeast-based Assay for SARS-CoV PLP; S. cerevisiae expressing SARS-CoV PLpro, growth rescue; control for the full effect not named in the record; Potency, µM (titrated, usually from 32.9 µM), for the others: at the top dose activity, positive = growth rescue; 0.19% of 330,000 active; AID 485353, 2010; note: 0% is about no effect; nearly all actives have a fitted effect of over 55% in size; growth read by luminescence after 48 h
Starred values were filed as active, the others as inactive; ? = inconclusive; / = not tested or not shown; [ ] = another dose, or the depositor's remark. Unless noted, calls come from the whole dose curve; as a rule, active means well fitted rising curve with a large enough effect; inconclusive means small, poorly fitted or top-dose-only effect; inactive means no such curve, though single readings can be large or run the other way. Potency is the fitted concentration of half-maximal effect.

SMILES	NS1 inh	Marburg entry inh	RE007 growth inh	Lassa entry inh	Cruzain Triton	2A StopGo	Cruzain noTriton	SARS PLpro yeast
COc1ccc(C2CC2/C(C)=N/OC(=O)C2CC2)cc1 (stereo unspecified)	/	16%[46.1 µM]	16%	?	/	15%	/	-10%
Oc1ccc(CN2CCN(c3ncccn3)CC2)cc1	3%	/	-21%	/	/	7%	/	2%
CC(C)C(C(=O)NC1CCCCC1)N(CC1CCCO1)C(=O)CNS(=O)(=O)c1ccc(F)cc1 (stereo unspecified)	-6%	5%	-15%	7%	3.5%	2%	6%	-3%
Cn1c(CNC(=O)c2ccc3c(c2)OCO3)nnc1SCC(=O)Nc1ccc(F)cc1	-2%	-1%[46.1 µM]	-17%	/	/	28%	/	1%
CCc1ccc(NC(=O)CSc2nc3ccccc3nc2N2CCCC2)cc1	?	/	-11%	/	/	7%	/	?
COC(=O)C1CN(C(=O)COc2cc(C)c(Cl)c(C)c2)c2ccccc2O1 (stereo unspecified)	-6%	/	2%	/	/	-12%	/	-7%
CC(C)n1cc(/C=C2/NC(=O)N(c3cccc(Cl)c3)C2=O)c2ccccc21	16%	?	-2%	4%	-0.2%	-5%	16µM*	-21%
COc1ccc(CCNC(=O)C(=O)N/N=C/c2cccs2)cc1OC	4%	2%[46.1 µM]	12%	-11%	/	5%	/	1%
CCNC(=O)NC(=O)C(C)OC(=O)c1c(C)nn(Cc2ccccc2Cl)c1Cl (stereo unspecified)	6%	-2%	14%	0%	-0.9%	-13%	11%	17%
O=c1[nH]c2ccccc2cc1CN(Cc1ccco1)S(=O)(=O)c1ccc(F)cc1	-2%	-27%[46.1 µM]	9%	-8%[46.1 µM]	/	-21%	/	-1%
O=C(Nc1ccc2oc(-c3ccncc3)nc2c1)c1ccc2c(c1)OCCO2	4%	-1%[46.1 µM]	-4%	-18%	/	0%	/	-5%
Cc1ccc(-c2nc(CSc3nncn4c3cc3occc34)c(C)o2)cc1	/	/	/	25%[46.1 µM]	-2.6%	-10%	5%	/
CCN(CC)C(=O)Cn1cc([N+](=O)[O-])cc1[N+](=O)[O-]	/	?	-11%	21%[46.1 µM]	/	-1%	/	/
Cc1ccnc(NC(=O)CNC(=O)C23CC4CC(CC(C4)C2)C3)c1	/	1%	-8%	7%	/	23%	/	0%
Cc1ccc(OCC(=O)Nc2ccccc2[N+](=O)[O-])c(Br)c1	/	?	367%	5%	/	7%	/	-2%
CCC(C)NC(=O)/C=C/c1ccc(S(=O)(=O)NCc2ccco2)cc1 (stereo unspecified)	/	5%[46.1 µM]	20%	?	/	5%	/	0%
O=C(COC(=O)c1ccccc1O)NCCC1=CCCCC1	/	9%[14.2 µM]	0%	18%	/	55%[activator]	/	-4%
Cc1nn(CCc2nn[nH]n2)c2nc(-c3ccccc3)cc(C(F)(F)F)c12	/	-14%	4%	1%	/	-27%	/	-2%
CN(/N=C/c1ccc(Br)o1)C1=NS(=O)(=O)c2ccccc21	/	-18%[46.1 µM]	5%	-8%	/	-15%	/	1%
O=C(Nc1ccc(C(=O)N2CCOCC2)cc1)Nc1cccc2ccccc12	/	?	-24%	5%[46.1 µM]	/	4%	/	-1%
COc1cc(CCC(=O)NCCc2ccc(F)cc2)cc(OC)c1OC	/	-4%	40%	1%	/	-11%	/	/
CCOc1ccc(/C=C2/SC(=S)N(CCC(=O)Nc3ccc(C(=O)O)cc3)C2=O)cc1	1%	/	-10%	/	/	64%[activator]	/	-2%
CCCc1cc(=O)[nH]c(SCc2ccc(F)cc2)n1	0%	-9%[46.1 µM]	4%	-10%	/	-14%	/	-3%
Cc1cc(NC(=O)c2ccc(Cl)cc2)c(C(C)C)cc1O	-1%	2%	-11%[3.69 µM]	7%	1.0%	-4%	-2%	2%
Cc1ccc(C(=O)c2sc(Nc3ccccc3)c(S(=O)(=O)c3ccccc3)c2N)c(C)c1	/	/	/	?	-1.9%	-11%	7.9µM*	/
O=C(CSc1nnc(C2CC2)n1-c1ccccc1)N1CCCC1	/	9%[46.1 µM]	-7%	-5%[46.1 µM]	/	-6%	/	15%
COc1ccc(C(=O)N2CC3(C)CC2CC(C)(C)C3)cc1OC (stereo unspecified)	-6%	?	12%	-8%	-2.5%	-13%	?	27%
CCCN1Cc2cccc(C(=O)NCc3cccs3)c2C1=O	-38%	1%[46.1 µM]	3%	3%	3.0%	10%	3%	-3%
COc1cc(/C=C2\SC(=S)N(CC(=O)O)C2=O)ccc1OC(=O)c1ccco1	?	-8%[46.1 µM]	29%	-2%	/	-16%	/	0%
O=C(CCCCCN1C(=O)c2ccccc2C1=O)Nc1ccc(C(=O)O)cc1	6%	/	5%	/	/	-4%	/	1%
COc1ccc(C)cc1NC(=O)CSc1nnnn1C1CCCC1	-4%	?	-1%	7%[46.1 µM]	/	-7%	/	2%
CN(C)S(=O)(=O)c1cccc(COC(=O)c2cnccn2)c1	6%	24%[46.1 µM]	-26%	3%	/	40%	/	1%
CCC(=O)Nc1ccc(C(=O)N/N=C/c2ccccc2[N+](=O)[O-])cc1	-7%	14%	-1%	?	0.3%	31%[activator]	-13%	-3%
Cc1c(C(=O)NCc2cccc(Cl)c2)sc2nc3n(c(=O)c12)CCCC3	/	/	/	-9%[46.1 µM]	-3.2%	0%	15%	/
COc1ccc(-c2csc(N(Cc3ccco3)C(=O)c3cccs3)n2)cc1	-3%	/	37%	/	/	-22%	/	-1%
CC1(C)CC(NC(=S)Nc2ccc([N+](=O)[O-])cc2)CC(C)(C)N1	3%	30%	0%	5%	/	-13%	/	0%
O=C(Cn1c(=O)n(Cc2ccco2)c(=O)c2c3c(sc21)CCCCC3)c1ccccc1	?	-3%	-16%	-21%[14.3 µM]	-7.9%	5%	25µM*	0%
COc1ccc(S(=O)(=O)N2CCCCC2)cc1-n1cnnn1	4%	?	21%	0%	/	-3%	/	1%
O=C(CCS(=O)(=O)c1cc2c(cc1Cl)NC(=O)CO2)NCc1ccc(F)cc1	-9%	/	-2%	/	/	-9%	/	7%
CCOC(=O)C1CCN(C(=O)c2cc3c(ccc4ccccc43)o2)CC1	-28%	8%	17%	23%	/	82%[activator]	/	10%

The list goes on, starting with the last two of the part before.
SMILES	NS1 inh	Marburg entry inh	RE007 growth inh	Lassa entry inh	Cruzain Triton	2A StopGo	Cruzain noTriton	SARS PLpro yeast
O=C(CCS(=O)(=O)c1cc2c(cc1Cl)NC(=O)CO2)NCc1ccc(F)cc1	-9%	/	-2%	/	/	-9%	/	7%
CCOC(=O)C1CCN(C(=O)c2cc3c(ccc4ccccc43)o2)CC1	-28%	8%	17%	23%	/	82%[activator]	/	10%
Cc1nnc(NC(=O)C2CCCN2C(=O)Nc2ccccc2)s1 (stereo unspecified)	8%	8%[46.1 µM]	-9%	12%	/	-3%	/	-1%
CC1C(=O)C(C)C(c2ccc(O)cc2)NC1c1ccc(O)cc1 (stereo unspecified)	2%	/	-6%	/	/	2%	/	0%
COC(=O)c1ccc(OC)c(Cn2c(=O)n(-c3ccc(C)cc3)c(=O)c3c2cnn3C)c1	/	16%[46.1 µM]	/	-15%[46.1 µM]	-0.8%	-21%	5%	/
COc1ccc(NC(=O)COc2ccc(N(C)S(=O)(=O)c3ccc(C)cc3)cc2)cc1	-3%	-13%	-2%	-5%	0.2%	?	15%	18%
Cc1ccc(Cn2c(SCc3ccc(C(=O)N4CCCCC4)cc3)nc3ccncc32)cc1	/	?	/	-15%[46.1 µM]	-13%	-18%	-3%	/
COc1ccc(CCNc2nc(-c3ccc(OC)c(OC)c3)cc(C(F)(F)F)n2)cc1OC	/	?	/	5%[46.1 µM]	-11%	?	?	/
CCOc1ccc(N(CC)S(=O)(=O)c2cc(Br)cc3c2N(C(C)=O)C(C)C3)cc1 (stereo unspecified)	/	?	/	?	-4.9%	11µM*	?	/
CCN(CC)CC(=O)NC1CC(C)(C)Cc2c1cnn2-c1ccc(F)cc1 (stereo unspecified)	7%	/	11%	/	/	1%	/	?
COc1ccc(C(CC(=O)NCC(OC)OC)NS(=O)(=O)c2ccc(Cl)cc2)cc1 (stereo unspecified)	/	0%[46.1 µM]	2%	-16%	/	13%	/	3%

Structures from the list above with an aryl thioether with sulfur outside any ring, in the order listed:
SMILES	NS1 inh	Marburg entry inh	RE007 growth inh	Lassa entry inh	Cruzain Triton	2A StopGo	Cruzain noTriton	SARS PLpro yeast
Cn1c(CNC(=O)c2ccc3c(c2)OCO3)nnc1SCC(=O)Nc1ccc(F)cc1	-2%	-1%[46.1 µM]	-17%	/	/	28%	/	1%
CCc1ccc(NC(=O)CSc2nc3ccccc3nc2N2CCCC2)cc1	?	/	-11%	/	/	7%	/	?
Cc1ccc(-c2nc(CSc3nncn4c3cc3occc34)c(C)o2)cc1	/	/	/	25%[46.1 µM]	-2.6%	-10%	5%	/
CCCc1cc(=O)[nH]c(SCc2ccc(F)cc2)n1	0%	-9%[46.1 µM]	4%	-10%	/	-14%	/	-3%
O=C(CSc1nnc(C2CC2)n1-c1ccccc1)N1CCCC1	/	9%[46.1 µM]	-7%	-5%[46.1 µM]	/	-6%	/	15%
COc1ccc(C)cc1NC(=O)CSc1nnnn1C1CCCC1	-4%	?	-1%	7%[46.1 µM]	/	-7%	/	2%
Cc1ccc(Cn2c(SCc3ccc(C(=O)N4CCCCC4)cc3)nc3ccncc32)cc1	/	?	/	-15%[46.1 µM]	-13%	-18%	-3%	/
